Compound activity deposited in PubChem by National Center for Advancing Translational Sciences (NCATS).
TRPML1 ag: human mucolipin-1 channel agonism | Q9GZU1 | TRPML1-expressing cells, Ca2+ dye fluorescence, FDSS; host cell line not named in the record; reference of the full effect not given here | activation, % (no concentration beside the values) | 0.12% of 410,000 active | AID 624414; in the data active = activation above about 50%; inconclusive = about 30% to 50%; inactive = below about 30%; note: 0% is about no effect; the text of the record puts the active cut at 80%
Target sequence (Q9GZU1 whole entry, looked up): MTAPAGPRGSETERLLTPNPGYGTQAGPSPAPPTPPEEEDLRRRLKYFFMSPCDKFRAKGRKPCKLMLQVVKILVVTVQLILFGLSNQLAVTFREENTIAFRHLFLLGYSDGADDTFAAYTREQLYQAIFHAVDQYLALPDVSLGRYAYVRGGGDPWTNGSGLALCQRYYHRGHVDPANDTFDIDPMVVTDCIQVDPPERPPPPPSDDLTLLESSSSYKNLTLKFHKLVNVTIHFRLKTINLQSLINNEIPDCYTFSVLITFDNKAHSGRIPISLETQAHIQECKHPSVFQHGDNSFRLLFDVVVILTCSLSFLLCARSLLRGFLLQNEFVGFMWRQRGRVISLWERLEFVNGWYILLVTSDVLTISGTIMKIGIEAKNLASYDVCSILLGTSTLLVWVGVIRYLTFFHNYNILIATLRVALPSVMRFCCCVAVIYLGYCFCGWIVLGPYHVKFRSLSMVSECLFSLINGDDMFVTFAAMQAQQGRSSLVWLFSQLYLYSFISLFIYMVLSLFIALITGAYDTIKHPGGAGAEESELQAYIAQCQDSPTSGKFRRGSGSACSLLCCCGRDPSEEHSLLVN
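TRPML1-DL cells, Tet-induced overnight (~16 h, 37 degrees C), loaded 45-90 min at room temperature with Ca8 no-wash calcium dye plus quencher. FDSS fluorescence: 10 s baseline, compound pin-transfer, 110 s agonist read, then EC80 54-4 (4uM final) and 110 s antagonist read.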
TRPML1 inh: inhibitors of human TRPML1 channel | 0.02% of 390,000 active | AID 624415 | Q9GZU1 | TRPML1-inducible cells, Ca2+ dye fluorescence, FDSS; hits give low values; inhibition of EC80 agonist-evoked calcium signal | activity change, negative = inhibition, % (no concentration beside the values); in the data active means activity change below about -50%; inconclusive means about -30% to -50%; inactive means above about -30%;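 note: stimulus is agonist 54-4 at its EC80 concentration; % is set by controls: 0 for no effect and ±100 for the full control effect; compound concentration not given in the record; the text of the record puts the active cut at -80%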
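Calcium fluorescence in TRPML1-DL cells induced overnight with Tet: a 110 s read after compound pin addition, then a 110 s antagonist read after challenge with 54-4 at 4 uM final (EC80).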
CtBP-E1A blk: inhibitors of CtBP/E1A interaction | 0.49% of 340,000 active | activity change, % (concentration not given with the values) | AlphaScreen GST-E1A/His-CtBP binding, 1536-well; hits give low values; control for the full effect not named in the record; in the data active means activity change below about -65%; inconclusive means about -30% to -65%; inactive means above about -30%; note: % is set by controls: 0 for no effect and ±100 for the full control effect
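Protein mix (5X: 125 nM each GST-E1A, His-CtBP) was incubated with pinned compound 2 h at 37 deg C in dark, in 50 mM Tris pH 8.0 buffer with 300 mM NaCl. Glutathione donor and nickel acceptor beads followed; AlphaScreen signal read after 1 h.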
TRPV1 PAM: human TRPV1 potentiation. TRPV1-expressing cells, Fluo-8 calcium influx, capsaicin EC20 potentiation; host cell line not named in the record; control for the full effect not named in the record. potentiation, % at 8.33 µM. 0.02% of 320,000 active; active means potentiation above 80%; inconclusive means 30% to 80%; inactive means below 30%; note: 0% is about no effect
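Cells expressing TRPV1 were dye-loaded with Fluo-8 and read kinetically: 10 s baseline, 3 min after compound (agonist portion), then 2 min after EC20 capsaicin (allosteric enhancer portion). Calcium-bound dye fluorescence at 480/520 nm.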
D2 potentiator: positive allosteric modulators of human D2 dopamine receptor; DiscoveRx D2 beta-arrestin cells, luminescence, 90 min; 100% = 57 uM dopamine signal; P14416; 0.23% of 360,000 active; potentiation, % (concentration not given with the values); active = potentiation of 50% or more; inconclusive = 30% to 50%; inactive = 30% or less;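 note: compound concentration not given in the record; tested on top of an EC20 dose of dopamine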
Target sequence (P14416 whole entry, looked up): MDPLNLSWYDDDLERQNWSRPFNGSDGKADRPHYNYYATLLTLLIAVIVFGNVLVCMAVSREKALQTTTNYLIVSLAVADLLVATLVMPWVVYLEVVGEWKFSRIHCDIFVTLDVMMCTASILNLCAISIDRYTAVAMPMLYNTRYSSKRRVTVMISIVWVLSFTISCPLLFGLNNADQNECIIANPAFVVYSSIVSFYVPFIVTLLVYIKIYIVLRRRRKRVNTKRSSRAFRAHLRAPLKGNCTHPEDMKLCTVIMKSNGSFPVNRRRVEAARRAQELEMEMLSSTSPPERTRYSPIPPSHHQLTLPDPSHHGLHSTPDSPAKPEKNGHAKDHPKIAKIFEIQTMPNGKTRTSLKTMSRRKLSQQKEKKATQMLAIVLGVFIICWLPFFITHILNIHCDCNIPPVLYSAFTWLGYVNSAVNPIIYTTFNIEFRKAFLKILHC
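PathHunter beta-arrestin assay in DiscoveRx D2 cells. Compounds were added with an EC20 of dopamine (50 nM final) for 90 min at 37 deg C. Luminescence was read 1 h after detection reagent, with 57 uM dopamine as the EC100 control.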
Six1-Eya2 inh: Six1/Eya2 interaction inhibition; AlphaScreen GST-Six1/His-Eya2 binding, biochemical; hits give low values; control for the full effect not named in the record; activity change, % (concentration not given with the values); 0.56% of 360,000 active; in the data active = activity change below about -65%; inconclusive = about -30% to -65%; inactive = above about -30%; note: % is set by controls: 0 for no effect and ±100 for the full control effect
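Compounds are tested against tagged Six1 and Eya2 proteins bridged by glutathione donor and nickel acceptor beads; after a one-hour incubation at 37 °C without light, AlphaScreen emission is recorded.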
* hit, by the source's call; ? = inconclusive; nt = no result given; & = joins results of further samples. These rows are one share of the data, so the mix of outcomes need not match the whole.

Results follow in this order: TRPML1 ag	TRPML1 inh	CtBP-E1A blk	TRPV1 PAM	D2 potentiator	Six1-Eya2 inh
Cc1ccc2c(c1)C(c1ccccc1)=NCC(=O)N2C
    1.2	-15	39	nt	-5	38
O=C(COC(=O)c1cccc(O)c1)Nc1ccc(Cl)cc1C(=O)c1ccccc1
    2.4	4	nt	-14	-3	-5
O=C(CCc1ccccc1)N1Cc2cc(-c3ccccc3)ccc2-n2nncc2C1
    0.2	nt	-1	nt	-3	-1
CC(NC1=NCCS1)c1ccccc1 (stereo not drawn)
    -0.6	-3	nt	-2	-9	2
CN(C)c1ccc(/C=C/[N+](=O)[O-])cc1
    ?	-2	1	12	-3	20
O=C1COc2ccc(C(=O)COC(=O)Cc3ccccc3)cc2N1
    -1.1	7	7	-3	0	-7
COc1ccc(Nc2ncc(C(=O)N3CCC4(CC3)OCCO4)c3ccccc23)cc1
    -0.2	2	3	3	-1	2
COC(=O)C(O)(c1ccc(N(C)C)cc1)C(F)(F)F (stereo not drawn)
    -0.1	-1	nt	-7	-12	7
COc1ccc2c(C)c(CCC(=O)N3C[C@H]4C[C@@H](C3)c3cccc(=O)n3C4)c(=O)oc2c1
    nt	nt	0	9	1	-2
Cc1cc(OC(C)C(=O)NCc2ccncc2)c2c3c(c(=O)oc2c1)CCC3 (stereo not drawn)
    -0.7	8	4	0	-3	2
COc1ccc(NP(=O)(Oc2ccccc2OC)Oc2ccccc2OC)cc1
    -0.2	-5	-2	-2	8	-4
Cc1cccc(CN2CCN(CC(=O)N3CCC4(CC3)OCCO4)C2=O)c1
    1.2	-5	7	6	-3	3
Cc1ccc(N2C(=O)NC(=O)/C(=C\c3ccc(N4CCOCC4)cc3)C2=O)cc1
    -0.3	11	5	8	-10	12
Cc1ncc(CN2CCCC(C(=O)c3cccc(Cl)c3)C2)s1 (stereo not drawn)
    0.3	5	nt	8	-18	-1
Cc1nc2ccc(N3CCN(C)CC3)cc2nc1C
    -0.7	-4	-5	1	-8	12
CC1CC2(C)C(=CC1=O)CCC1C3CCC(C)(O)C3(C)CC3OC312 (stereo not drawn)
    0.1	5	2	nt	-4	1
CN1OC[C@@H]2COc3ccc4ccccc4c3[C@@H]21
    0.0	-4	4	?	-3	13
COC(=O)C1=C(c2ccccc2)C[C@@H]2CC[C@H]1N2C
    -0.4	-16	5	5	-8	1
CC(=O)OC1CCC2(C)C3CCC4(C)C(OC(C)=O)CCC4C3C(C)C2(O)C1 (stereo not drawn)
    0.0	-5	2	nt	0	4
Cn1cccc1/C=C1/C(=O)NC(=O)N(Cc2ccc(F)cc2)C1=O
    -0.5	3	-2	-9	1	-16

Some of these compounds in order of number of heavy atoms, ascending.
Results follow in this order: TRPML1 ag	TRPML1 inh	CtBP-E1A blk	TRPV1 PAM	D2 potentiator	Six1-Eya2 inh
CC(NC1=NCCS1)c1ccccc1 (stereo not drawn)
    -0.6	-3	nt	-2	-9	2
CN1OC[C@@H]2COc3ccc4ccccc4c3[C@@H]21
    0.0	-4	4	?	-3	13
COc1ccc(NP(=O)(Oc2ccccc2OC)Oc2ccccc2OC)cc1
    -0.2	-5	-2	-2	8	-4

(cont.)
Results follow in this order: TRPML1 ag	TRPML1 inh	CtBP-E1A blk	TRPV1 PAM	D2 potentiator	Six1-Eya2 inh
CCC(C)C1NC(=O)C(NC(=O)C(CC(C)C)N(C)C(=O)C2CCCN2C(=O)C(C)O)C(C)OC(=O)C(Cc2ccc(OC)cc2)N(C)C(=O)C2CCCN2C(=O)C(CC(C)C)NC(=O)[C@H](C)C(=O)[C@H](C(C)C)OC(=O)CC1O (stereo partly drawn)
    1.0	65	6	nt	-21	-5
OC1(c2cccnc2)CC2CCC(C1)N2Cc1nnnn1Cc1ccccc1 (stereo not drawn)
    0.5	13	7	-10	-16	6
C[N+](C)(C)CCOC(=O)CBr
    0.1	1	9	0	-5	5
O=C1NC(=O)C2(Cc3ccccc3N3CCCC32)C(=O)N1 (stereo not drawn)
    -0.2	2	-3	8	-2	-2
COC(=O)C1=C(c2ccc(F)cc2F)C[C@@H]2CC[C@H]1N2C(=O)N1CCC(C)CC1
    1.0	11	4	-19	-3	0
COP(=O)(OC)C(NC(=O)c1ccc(C)cc1)C(Cl)(Cl)Cl (stereo not drawn)
    0.0	-24	3	-3	-5	13
CCCCC12CNCC(C)(CNC1)C2=O
    0.8	14	-1	5	0	3
CN(C)P1(N(C)C)=Nc2c(c(N)nn2C)C(c2ccccc2)=N1
    0.4&0.5	-9&-2	-25&4	-8	1&2	-11&0
O=c1[nH]c(=O)n(Cc2ccco2)c(O)c1C=NCCN1CCOCC1
    0.9	-9	0	-7	9	-6
N#C/C(N)=C(/N)C#N
    1.5	32	-20	-7	-13	2
C[C@]12CCC3C(CCC4=CC(O)CC[C@@]43/C=N/O)C1(O)CCC2C1=CC(=O)OC1 (stereo partly drawn)
    1.2	-14	-8	6	-1	-10
N#CC12c3ccccc3C(=O)N1Cc1cnnn1-c1ccccc12 (stereo not drawn)
    -0.1	nt	-22	nt	-7	12
Cc1cccc2c1=NC(=O)/C(=C/c1c(O)[nH]c(=O)[nH]c1=O)C=2
    -0.1	7	2	2	-10	9
Cc1ccccc1C1=NCC(=S)Nc2ccc(Cl)cc21
    2.9	8	-1	-3	-24	-3
O=C(C1CC(=O)N(c2ccc(F)c(Cl)c2)C1)N1CCC2(CC1)OCCO2 (stereo not drawn)
    -0.3	-2	8	-11	-12	-4
CN(C)C(=O)Nc1cccc(OC(=O)N(C)C)c1
    1.3	8	-5	9	8	-1
Cc1oc2ccc(OC(=O)N(C)C)cc2c1C(=O)OC(C)C
    1.7	-5	2	-30	-13	5
CCn1cc(C(=O)O)c(=O)c2ccc(C)nc21
    -0.1&-0.3	31	8	-9&-1	-6	0
COc1ccc(-c2nc3ccccc3c(=O)o2)cc1
    -0.5	2	-2	21	23	-2
c1ccc2c(CCN3CCCCC3)c[nH]c2c1
    -0.4	nt	-21	nt	-12	1

Going on with the list.
| molecule | TRPML1 ag | TRPML1 inh | CtBP-E1A blk | TRPV1 PAM | D2 potentiator | Six1-Eya2 inh |
| --- | --- | --- | --- | --- | --- | --- |
| CN(C)CC1CCCCC1OC(=O)Cc1ccc(Cl)c([N+](=O)[O-])c1 (stereo not drawn) | 0.0 | 34 | -1 | -12 | -2 | 6 |
| c1ccc2c(c1)[IH]c1ccccc1-2 | 0.0 | 12 | -27 | nt | 10 | -2 |
| CN1CCC2(CC1)c1ccccc1-c1ccccc12 | 0.6 | 5 | -21 | nt | -12 | 7 |
| O=C(O)[C@H]1C[C@@H]1[C@H](NP(=O)(c1ccccc1)c1ccccc1)c1ccccc1 | -0.5 | 17 | -14 | -8 | -11 | -1 |
| COC(=O)C12OCC34C(CC5C(C)=C(O)C(=O)CC5(C)C3C(O)C1O)OC(=O)C(OC(=O)/C=C(\C)C(C)C)C24 (stereo not drawn) | -0.5 | 12 | 9 | nt | -22 | 3 |
| CN(C)C(=O)Oc1cccc(NC(=O)N2CCOCC2)c1 | -0.4 | -6 | 9 | -27 | 8 | 7 |
| CN1C(C(=O)N2CCC3(CC2)OCCO3)=CC(c2ccc(F)cc2)=NS1(=O)=O | -0.2 | -11 | 2 | 13 | -6 | 5 |
| CC(C)(C)C(=O)O[C@H]1CC[C@@]2(C)C(=CC(=O)C3C2CC[C@]2(C)C(=O)[C@@H](F)CC32)C1 (stereo partly drawn) | 0.1 | 52 | 4 | nt | -14 | 1 |
| CCC(=O)N1CC(=O)Nc2ccc(F)cc2C1c1ccc(F)cc1 (stereo not drawn) | 0.0 | -12 | 16 | ? | -4 | 8 |
| CCC(=NCC1CCCO1)c1c(O)n(Cc2ccccc2)c(=O)[nH]c1=O (stereo not drawn) | -0.2 | 9 | -6 | -1 | -6 | 5 |
| C[C@]12CC[C@H](N)CC1=CCC1C2CC[C@@]2(C)C1CC[C@@H]2O (stereo partly drawn) | -0.2 | 2 | 1 | nt | -16 | -1 |
| Nc1ccc(Cl)cc1C(=O)c1ccccc1Cl | 1.5 | 4 | 1 | 8 | -11 | -4 |
| CN1CCN(c2nc3c(c(=O)[nH]2)CCC3)CC1 | -0.4 | 6 | 16 | ? | -3 | 3 |
| CSc1ccc(CN2CCN(C(=O)COc3cccc(C)c3)CC2)cc1 | -0.3&-0.5 | 0&-1 | -15 | -10 | -6 | 5 |
| CCC(C)NS(=O)(=O)c1ccc(OCC(=O)N2CCN(CC)CC2)cc1 (stereo not drawn) | 0.8 | -8 | -26 | -6 | -14 | 1 |
| COC(=O)C1=C(c2c(C)noc2C)C[C@@H]2CC[C@H]1N2C(=O)NCc1ccc2c(c1)OCO2 | -0.3 | 5 | 3 | -18 | -4 | -6 |

Gathered by group, the compounds so far containing a cyano group.
| molecule | TRPML1 ag | TRPML1 inh | CtBP-E1A blk | TRPV1 PAM | D2 potentiator | Six1-Eya2 inh |
| --- | --- | --- | --- | --- | --- | --- |
| N#C/C(N)=C(/N)C#N | 1.5 | 32 | -20 | -7 | -13 | 2 |
| N#CC12c3ccccc3C(=O)N1Cc1cnnn1-c1ccccc12 (stereo not drawn) | -0.1 | nt | -22 | nt | -7 | 12 |

The results go on.
| molecule | TRPML1 ag | TRPML1 inh | CtBP-E1A blk | TRPV1 PAM | D2 potentiator | Six1-Eya2 inh |
| --- | --- | --- | --- | --- | --- | --- |
| O[C@H]1C2CCC1C(N1CCCCC1)CC2 (stereo partly drawn) | -0.3 | -8 | -15 | 10 | -7 | 9 |
| c1cc2c(cc1N1CCCCC1)CNCc1cnnn1-2 | 0.1 | nt | 4 | nt | -1 | 4 |
| O=C1NC(=O)C2(Cc3c(nc4ccccn4c3=O)N3CCCCCC32)C(=O)N1Cc1ccccc1 (stereo not drawn) | 0.9 | 27 | -8 | -4 | -1 | -3 |
| CCNCC(O)c1cccc(O)c1 (stereo not drawn) | -0.7 | -9 | 3 | -4 | 3 | -2 |
| c1cc(C2N3CCCN2CC3)ccn1 (stereo not drawn) | -0.3 | -6 | nt | 21 | -18 | 10 |
| COC(=O)C1=C(c2cc3ccccc3o2)C[C@@H]2CC[C@H]1N2C(=O)NCc1ccc(C(F)(F)F)cc1 | 1.9 | 13 | -16 | nt | -4 | 9 |
| C[C@]12CCC3C(CC[C@@H]4C[C@@H](O)CC[C@]34C)C1CC[C@@H]2O (stereo partly drawn) | 0.5 | -12 | -4 | nt | -5 | 7 |
| Cc1ccc(-c2cc(-c3ccc(C)cc3)[n+](-c3ccccc3)c(-c3ccc(C)cc3)c2)cc1 | ? | 10 | -5 | 5 | -88 | -15 |
| C[C@@H]1O[C@@H](O[C@H]2C[C@@H](O)[C@]3(CO)[C@H]4[C@H](O)C[C@]5(C)[C@@H](C6COC(=O)C6)CC[C@]5(O)[C@@H]4CC[C@]3(O)C2)[C@H](O)[C@H](O)[C@H]1O (stereo partly drawn) | -0.3 | 28 | 0 | -6 | 7 | 11 |
